T cruzi repl: blocks replication of Trypanosoma cruzi. T. cruzi beta-gal in NIH3T3, luminescence, 90 h. inhibition, % (no concentration beside the values). 300,000 tested, 1.4% active;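 active means mean inhibition across valid replicates above about 55%, limit read from the data; inconclusive means mean below that limit but half or more replicates reach it; inactive means mean below it, under half of replicates reach it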;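 further: signal also drops with host cell toxicity which is not excluded here; 0% = plate median of DMSO wells and 100% = zero luminescence signal; higher percent means less beta-gal luminescence so fewer parasites; stock transfer was 50 nL into about 50 µL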
Ecoli rRNA inh: selective bacterial rRNA inhibition in E. coli; E. coli WT GFP vs humanized-ribosome RFP mutants, fluorescence, 24 h; stronger effect = lower value; DMSO median 0, no signal -100; GFP signal change (wild-type ribosome), % (no concentration beside the values); 350,000 tested, 1.6% active; AID 720706;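 active means significant combined selectivity score with lowered wild-type GFP, culture density cut under 30%, mutant RFP and density less affected; inactive means any of these conditions unmet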; further: one replicate is shown; some compounds called inactive have numbers as strong as hits
Calb FLC: affects C. albicans growth with fluconazole. C. albicans CaCi-2 (fluconazole-resistant clinical isolate) + fluconazole, Alamar Blue growth, 48 h. growth inhibition, % (no concentration beside the values). 300,000 tested, 0.57% active. AID 1979;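 active means most replicates above 75%; inconclusive means exactly half above 75%; inactive means most below 75%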;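 further: all wells also contain fluconazole at 8 µg/ml as a sub-toxic cotreatment; 0% = median of DMSO wells and 100% = median of geldanamycin control wells; wells of about 8 µL received 7.5 nL stock; the first replicate is given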
AF4-AF9 inh: inhibitors of human MLL-AF4/AF9 interaction. AlphaScreen, biotin-AF4 peptide binding to FLAG-AF9. 350,000 tested, 0.47% active. AID 651704. P42568. inhibition, % at 10 µM;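 active means every replicate reaching a set inhibition limit, whatever the replicate mean, cut at about 25% in these data; inconclusive means mean inhibition reaches that limit but some replicates miss it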;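 further: 0% = plate neutral control median and 100% = total signal loss; the record names both 10 and 1 µM as test concentration; the first replicate is given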
Target sequence (P42568 whole entry, looked up): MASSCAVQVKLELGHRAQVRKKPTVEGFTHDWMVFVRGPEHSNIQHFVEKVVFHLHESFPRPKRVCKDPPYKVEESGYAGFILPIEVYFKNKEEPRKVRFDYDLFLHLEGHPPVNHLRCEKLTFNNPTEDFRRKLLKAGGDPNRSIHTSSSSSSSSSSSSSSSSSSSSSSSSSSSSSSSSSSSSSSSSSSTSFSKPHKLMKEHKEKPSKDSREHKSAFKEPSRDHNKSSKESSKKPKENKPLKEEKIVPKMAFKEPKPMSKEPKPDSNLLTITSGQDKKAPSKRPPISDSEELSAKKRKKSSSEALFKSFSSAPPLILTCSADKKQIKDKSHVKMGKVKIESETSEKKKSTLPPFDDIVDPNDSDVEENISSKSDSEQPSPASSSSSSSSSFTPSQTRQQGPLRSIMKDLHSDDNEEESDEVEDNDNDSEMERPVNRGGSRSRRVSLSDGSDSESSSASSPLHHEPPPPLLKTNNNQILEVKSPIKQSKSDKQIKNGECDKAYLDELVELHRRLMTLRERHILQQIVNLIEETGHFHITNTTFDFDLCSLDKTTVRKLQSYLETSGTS
FGF22 binding: FGF22 (human) thermal shift binding | recombinant FGF22 thermal shift, SYPRO orange fluorescence; percent of sucrose octasulfate shift, DMSO zero | calls only at 9.99 µM | Q9HCT0 | AID 651658 | 340,000 tested, 1.5% active;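 active means melting point raised past a set limit in the mean and every replicate; inconclusive means no clear call; three in four hits are not shown here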
Target sequence (Q9HCT0 whole entry, looked up): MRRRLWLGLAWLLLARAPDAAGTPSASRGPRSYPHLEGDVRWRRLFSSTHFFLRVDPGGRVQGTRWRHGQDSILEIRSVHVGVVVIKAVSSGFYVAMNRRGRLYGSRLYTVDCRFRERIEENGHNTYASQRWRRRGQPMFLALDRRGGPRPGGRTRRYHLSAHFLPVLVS
RanGTP-Impb inh: inhibitors of RanGTP-importin-beta interaction, primary screen, biochemical, FRET, CFP-Ran, YFP-importin-beta, homogeneous. cell-free CFP-Ran/YFP-importin-beta FRET ratio. inhibition, % (concentration not given with the values). 300,000 tested, 1.1% active. AID 2216;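 active means most replicates above 15%; inconclusive means exactly half above 15%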;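 further: 0% = DMSO wells and 100% = Ran loaded with GDP instead of GTP; wells of about 40 µL received 100 nL stock; the first replicate is given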
ALR inh: inhibitors of human sulfhydryl oxidase ALR | 290,000 tested, 3.8% active | P55789 | inhibition, % (test concentration not listed) | purified ALR, DTT oxidation, H2O2 HRP-luminol luminescence | AID 485317;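 active means mean and each replicate at 75% or more; inconclusive means only one of the two met; inactive means neither met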;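 further: stock transfer was 7.5 nL into about 7.5 µL; 0% = neutral wells and 100% = wells with inactivated enzyme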
Target sequence (P55789 whole entry, looked up): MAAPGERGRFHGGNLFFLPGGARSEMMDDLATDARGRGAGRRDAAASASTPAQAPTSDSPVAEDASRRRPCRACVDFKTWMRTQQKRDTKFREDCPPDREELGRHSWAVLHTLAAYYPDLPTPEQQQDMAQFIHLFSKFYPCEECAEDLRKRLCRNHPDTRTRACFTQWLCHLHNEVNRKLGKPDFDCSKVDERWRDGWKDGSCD
Beta apoptosis: beta cell apoptosis inhibition. INS-1E cytokine-induced death, ATP luminescence, 48 h; percent of positive-control rescue, neutral wells zero. protection from apoptosis, % (concentration not given with the values). 300,000 tested, 0.8% active;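 active means all replicates at 75% or more, or half of them and the mean; inconclusive means half reach 75% but not the mean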;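 further: 0% = cytokine-treated negative control wells and 100% = positive control rescue; higher means more ATP so stronger rescue from cytokine killing; wells of about 40 µL received 100 nL stock; the first replicate is given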
Ecoli rRNA inh OD600: recorded beside Ecoli rRNA inh, whose call it bears; OD600 change, %; measured here: OD600 growth;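 optical density of the mix in the first replicate; 0 = DMSO median and -100 = no signal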
Ecoli rRNA inh RFP: further read-out of Ecoli rRNA inh, marked with its call; RFP signal change, %; measured here: RFP humanized mutant strains;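 first replicate; 0 = DMSO median and -100 = no signal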
The depositor's hits bear a star; i = inactive; ? = inconclusive; / = no result given.

SMILES	T cruzi repl	Ecoli rRNA inh	Ecoli rRNA inh OD600	Ecoli rRNA inh RFP	Calb FLC	AF4-AF9 inh	FGF22 binding	RanGTP-Impb inh	ALR inh	Beta apoptosis
CN(CCCC1CCCC1)C(=O)c1cc(COc2ccc(F)c(F)c2)on1	14	-4	-39	3.7	-10	-4.7	i	3.2	-4	-4
CC(C)NCC(O)COC1C2CC3CC(C2)CC1C3 (stereo not drawn)	62*	15	7	2.0	-37	-1.0	/	-2.6	7	2
COc1ccc(CNC(=O)C(=O)NCC2OCCN2S(=O)(=O)c2ccc(F)cc2)cc1 (stereo not drawn)	-3	-2	-1	4.4	5	-3.8	i	6.0	-11	-3
COCCn1nnnc1C(c1cc2cc(OC)ccc2[nH]c1=O)N1CCC(Cc2ccccc2)CC1 (stereo not drawn)	38	5	3	-4.3	-8	-38	i	-1.6	-9	2
O=[N+]([O-])c1ccc(CN2CCN(c3ncccn3)CC2)cc1	4	20	8	2.7	-3	-1.8	i	2.3	2	-2
N#C/C(=C\c1c(N2CCCCCC2)nc2ccccn2c1=O)C(N)=O	0	-1	0	1.5	15	5.5	i	-3.1	0	-8
Cc1cc(F)ccc1S(=O)(=O)N1CCCCC1CCNC(=O)C(=O)NCCN1CCOCC1 (stereo not drawn)	18	4	-2	-0.5	8	0.0	/	1.7	-57	-2
CC(C)[C@H](NC(=O)c1ccccc1F)C(=O)OCC(=O)Nc1sccc1C(N)=O	/	-10	-15	0.9	/	-3.1	i	/	30	3
CCCN(CCC)CCNC(=O)CCC(=O)Nc1ccc2nc(N3CCN(C)CC3)cc(C)c2c1	35	8	0	-9.7	7	-41	i	-0.7	-2	4
CCCCn1c(=O)c(C(C)=O)c(O)c2ccccc21	-11	-28	-33	-7.0	-13	-1.7	i	0.0	-11	-4
CCOc1ccc(OCCCC(=O)NCCOc2ccccc2OC)cc1	9	7	5	-4.3	0	-6.0	i	-0.1	-24	/
Cc1ccc(NC(=O)CN2CCCC2)cc1	0	10	8	-1.8	-7	0.3	i	0.6	7	/
Cc1c(Cl)cccc1NC(=S)N1CCN(C(=O)c2ccco2)CC1	-15	-28*	-6.7*	-2.7*	-2	-0.3	i	2.3	-12	/
CCCCn1c(N)c(N(CCOC)C(=O)CCNC(=O)c2ccc(Cl)cc2)c(=O)[nH]c1=O	-3	1	9	-1.6	-4	-7.4	i	0.4	1	-2
Cc1ccc(/C=C(\NC(=O)c2ccc(C)cc2)c2nc(=S)[nH][nH]2)cc1	14	-3	1	5.4	57	10	i	10.0	-33	-3
CCCn1c(SCC(=O)N2CCN(S(=O)(=O)c3ccc(Cl)cc3)CC2)n[nH]c1=O	-1	/	/	/	/	/	/	2.3	-8	-10
Cc1cc(NC(=O)COc2ccc(C(C)(C)C)cc2)no1	-7	-6	-5	-4.2	-7	-0.7	i	-5.9	/	/
COc1cccc(N=CC=C2OC(C)(C)C(C)(C)O2)c1	22	-4	-2	1.0	22	1.6	/	8.9	-6	3
O=C1CCCc2nc(N3CCN(C(c4ccccc4)c4ccccc4)CC3)ncc21	25	/	/	/	13	/	/	-1.6	-4	/
O=c1cc(N2CCCCC2)c(-c2ccccc2)nn1Cc1ccc(Cl)cc1Cl	43	/	/	/	20	/	/	4.8	-12	9
CN(CC(=O)Nc1ccc(S(=O)(=O)N2CCCC2)cc1)CC(=O)Nc1ccc(F)c(F)c1F	8	-33*	-11*	5.1*	-3	3.1	i	-3.2	-6	-2
O=C(COc1ncnc2ccccc12)NC1CCS(=O)(=O)C1 (stereo not drawn)	-7	/	/	/	-2	/	/	1.8	0	2
O=C(Nc1sc2c(c1C(=O)c1ccccc1)CCCC2)c1cccnc1	10	/	/	/	4	13	i	1.1	21	-6
COc1ccc(Cc2nc3ccc(C(=O)N4CCC[C@H]4CO)cc3o2)cc1	0	7	1	1.1	-7	2.1	i	5.7	-2	-4
O=C(Nc1ccccc1F)Nc1cc(Cl)ccc1-n1cncn1	12	7	2	-0.6	1	?	i	6.3	-10	-4
Cc1nc(NC(=O)CCN2C(=O)C3CC=CCC3C2=O)sc1C (stereo not drawn)	0	9	6	4.5	0	0.0	i	2.1	-4	-1
COc1ccc(N2CCN(C(=O)c3ccc(COc4ccc5c(C)cc(=O)oc5c4)cc3)CC2)cc1	20	8	12	-2.1	?	0.7	i	-2.4	1	16
COc1ccc(Cl)cc1NC(=O)CN(C)C(=O)c1cc2c(s1)CCC(C)C2 (stereo not drawn)	17	-14	-35	2.4	6	-44	i	1.2	-1	2
COC(=O)Nc1cccn(Cc2c(Cl)cccc2Cl)c1=O	-3	/	/	/	18	/	/	-3.1	-23	-4
CC1CCC2(CC1)NC(=O)N(CC(=O)NCCc1c[nH]c3ccccc13)C2=O (stereo not drawn)	/	1	-6	3.1	/	2.7	i	/	9	-2
Cc1ccc(OCC(=O)Nc2ccc3c(c2)OC(F)(F)O3)c([N+](=O)[O-])n1	-18	/	/	/	0	/	/	-1.4	-2	-4
CCSc1nc2cc(S(=O)(=O)N3CCOCC3)ccc2o1	/	5	8	-1.9	/	-12	i	/	5	3
CC1CCC(NC(=O)C2CCN(c3c4c(nc5ncnn35)CCC4)CC2)CC1 (stereo not drawn)	-29	/	/	/	-21	/	/	0.5	-8	35
CCSc1nnc(NC(=O)c2cccnc2Cl)s1	-16	/	/	/	18	/	/	-0.1	/	-3
O=C(c1cc2ccccc2o1)c1nc2c(n1O)CCCCC2	5	/	/	/	18	/	/	7.7	8	-4
COc1ccc(-c2c(C#N)c(N)nc3sc(C(=O)c4ccc(C)cc4)c(N)c23)cc1	2	/	/	/	32	/	/	-81	/	3
O=C(N/N=C/c1cccnc1)c1[nH]ncc1Br	-5	15	18	3.8	-1	-1.3	i	-1.3	/	2
COc1ccc(OC)c(CC(=O)Nc2cc(S(=O)(=O)N3CCCCC3)ccc2C)c1	/	-8	-9	2.4	/	3.7	i	/	-7	-3
CCCc1c(C)[nH]c2ccc(C(=O)O)cc2c1=S	-8	-1	5	0.2	-2	-2.3	i	0.9	/	/
CC(C)NC(=O)CSc1ncccc1-c1nc2ccccc2[nH]1	-11	8	6	9.9	-6	-0.2	i	0.0	-4	/

Shown with two lines to a compound: 10 of the compounds above
Values run as follows: T cruzi repl | Ecoli rRNA inh | Ecoli rRNA inh OD600 | Ecoli rRNA inh RFP | Calb FLC | AF4-AF9 inh | FGF22 binding | RanGTP-Impb inh | ALR inh | Beta apoptosis
> Cc1ccc(OCC(=O)Nc2ccc3c(c2)OC(F)(F)O3)c([N+](=O)[O-])n1
    -18 | / | / | / | 0 | / | / | -1.4 | -2 | -4
> CCSc1nc2cc(S(=O)(=O)N3CCOCC3)ccc2o1
    / | 5 | 8 | -1.9 | / | -12 | i | / | 5 | 3
> CC1CCC(NC(=O)C2CCN(c3c4c(nc5ncnn35)CCC4)CC2)CC1 (stereo not drawn)
    -29 | / | / | / | -21 | / | / | 0.5 | -8 | 35
> CCSc1nnc(NC(=O)c2cccnc2Cl)s1
    -16 | / | / | / | 18 | / | / | -0.1 | / | -3
> O=C(c1cc2ccccc2o1)c1nc2c(n1O)CCCCC2
    5 | / | / | / | 18 | / | / | 7.7 | 8 | -4
> COc1ccc(-c2c(C#N)c(N)nc3sc(C(=O)c4ccc(C)cc4)c(N)c23)cc1
    2 | / | / | / | 32 | / | / | -81 | / | 3
> O=C(N/N=C/c1cccnc1)c1[nH]ncc1Br
    -5 | 15 | 18 | 3.8 | -1 | -1.3 | i | -1.3 | / | 2
> COc1ccc(OC)c(CC(=O)Nc2cc(S(=O)(=O)N3CCCCC3)ccc2C)c1
    / | -8 | -9 | 2.4 | / | 3.7 | i | / | -7 | -3
> CCCc1c(C)[nH]c2ccc(C(=O)O)cc2c1=S
    -8 | -1 | 5 | 0.2 | -2 | -2.3 | i | 0.9 | / | /
> CC(C)NC(=O)CSc1ncccc1-c1nc2ccccc2[nH]1
    -11 | 8 | 6 | 9.9 | -6 | -0.2 | i | 0.0 | -4 | /

Next section.
SMILES	T cruzi repl	Ecoli rRNA inh	Ecoli rRNA inh OD600	Ecoli rRNA inh RFP	Calb FLC	AF4-AF9 inh	FGF22 binding	RanGTP-Impb inh	ALR inh	Beta apoptosis
Cc1nnc(SCCCN2C(=O)c3ccccc3C2=O)o1	0	/	/	/	16	/	/	?	/	3
COc1ccc(/C=N/N(Cc2ccccc2)c2ccccc2)cc1O	1	0	-4	-2.5	24	14	i	-1.9	/	5
Cc1cc(C)c(NC(=O)CN2CCN(c3ccccn3)CC2)c(C)c1	-6	12	9	1.1	-6	-10	i	2.6	-15	-4
Cc1ccc(C(=O)N/C(=C\c2cn(C)c3ccccc23)C(=O)NCCN2CCOCC2)cc1	-7	6	7	17	2	5.0	/	3.4	19	-6
CSC1=NCCN1C(=O)Cc1cccs1	6	7	13	0.2	-4	-1.9	i	-1.3	73	-2
CC1CCC2(CC1)C(Nc1cccc(Cl)c1)=NC(=S)N2CC#N (stereo not drawn)	6	/	/	/	?	/	/	-0.3	-22	5
Cc1ccc(C(=O)NNC(=S)NC(=O)COc2ccccc2)cc1	-7	-10	0	6.3	-9	0.2	i	0.9	4	-3
CCOc1ccc(/C=N/NC(=O)C2CCCC2)c(OCC)c1	-5	16	9	2.4	-13	-2.4	i	0.6	2	-8
CCCN(CC(=O)Nc1ccccc1C)C(=O)c1ccc(-c2ccc(C(C)=O)cc2)o1	5	/	/	/	8	/	/	?	-1	5
CC1CCN(C2CC(=O)N(c3ccc(Br)cc3Br)C2=O)CC1 (stereo not drawn)	-12	-9	-5	0.7	-3	-8.1	i	-1.4	?	-10
O=C(CN1C(=O)CCC1=O)NC(=O)NC1CCCC1	-10	8	11	-5.2	-27	-3.5	i	-2.7	-6	-10
COC(=O)c1c(NC(=O)C(C)(C)C)sc2c1CCN(Cc1ccccc1)C2	21	-6	-43	4.5	-5	-0.7	i	32*	2	4
O=c1c2ccccc2c2ccccc2c(=O)n1Cc1ccco1	-19	/	/	/	-5	/	/	-1.4	5	0
O=C(NCCO)C1(c2ccccc2)CCCC1	-11	/	/	/	2	/	/	2.5	1	-11
Cn1c(=O)n(Cc2ccccc2)c(=O)c2c1nc(NCC1CCCO1)n2Cc1ccccc1 (stereo not drawn)	4	/	/	/	6	/	/	8.0	0	5
CCn1c(=S)sc2c(=O)[nH]c(SCC(=O)Nc3cc(OC)ccc3OC)nc21	-25	-6	-8	2.0	-2	0.5	i	-2.8	-3	-7

From PubChem

Only part of the results is shown. The share of hits here may be higher or lower than overall.
